From PubChem
NPR1 antag: blocks ANP-stimulated signaling of human Npr1 receptor; HEK293 hNpr1 GloSensor cGMP, ANP-stimulated luminescence; Potency, µM (highest dose often 46.3 µM), inactives show top-dose activity change, negative = inhibition, usual class: inhibitors; 76,000 tested, 1.6% active; active = well fitted inhibition curve with a large enough effect; inconclusive = small, poorly fitted or top-dose-only effect; inactive = no such curve, though single readings can be large or run the other way;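 also: nearly all actives have a fitted effect of over 60% in size; nearly all hits also lower the signal before the agonist is added; a reference antagonist and vehicle were the controls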
Target sequence (P16066 whole entry, looked up): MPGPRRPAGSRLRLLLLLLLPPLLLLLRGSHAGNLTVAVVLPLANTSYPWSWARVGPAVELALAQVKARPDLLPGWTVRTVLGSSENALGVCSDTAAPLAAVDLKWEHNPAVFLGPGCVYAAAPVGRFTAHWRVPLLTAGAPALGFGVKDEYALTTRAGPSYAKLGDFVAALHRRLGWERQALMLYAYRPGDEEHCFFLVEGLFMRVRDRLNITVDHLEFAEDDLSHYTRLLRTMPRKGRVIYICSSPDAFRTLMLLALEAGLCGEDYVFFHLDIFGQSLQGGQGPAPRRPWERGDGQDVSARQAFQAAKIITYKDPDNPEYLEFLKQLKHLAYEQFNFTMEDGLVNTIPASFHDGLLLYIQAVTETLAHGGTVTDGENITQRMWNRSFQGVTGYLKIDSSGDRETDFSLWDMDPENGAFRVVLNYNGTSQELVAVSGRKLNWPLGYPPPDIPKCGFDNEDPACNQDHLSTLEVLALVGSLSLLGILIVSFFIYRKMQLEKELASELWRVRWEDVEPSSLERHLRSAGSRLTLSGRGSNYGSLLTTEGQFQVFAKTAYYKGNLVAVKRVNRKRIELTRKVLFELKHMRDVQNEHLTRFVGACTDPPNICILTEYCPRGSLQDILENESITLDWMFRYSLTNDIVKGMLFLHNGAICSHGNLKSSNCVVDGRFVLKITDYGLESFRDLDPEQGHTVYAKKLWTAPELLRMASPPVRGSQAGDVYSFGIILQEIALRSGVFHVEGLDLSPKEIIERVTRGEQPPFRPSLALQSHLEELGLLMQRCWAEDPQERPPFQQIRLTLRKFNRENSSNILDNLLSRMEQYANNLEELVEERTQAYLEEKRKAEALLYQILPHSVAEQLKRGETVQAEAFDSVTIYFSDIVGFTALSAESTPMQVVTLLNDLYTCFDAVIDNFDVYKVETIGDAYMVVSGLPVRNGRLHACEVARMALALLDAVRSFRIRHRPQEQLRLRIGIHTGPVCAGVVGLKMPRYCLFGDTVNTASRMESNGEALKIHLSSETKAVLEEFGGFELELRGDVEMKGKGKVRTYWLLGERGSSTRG
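HEK293 cells stably expressing human Npr1 and cGMP GloSensor pGS-40F, loaded 2 h with 2% GloSensor reagent, given compound 30 min at room temperature. Luminescence read before and 20 min after 0.1 nM hNppA.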
The depositor's hits bear a star; u = inconclusive; [ ] = dose if it differs, or a comment. % is scaled to controls: 0 for no effect and ±100 for the full control effect; potency is read from the fitted curve at half-maximal effect. Some of the compounds tested; the hit share may differ from the screen's.

SMILES	NPR1 antag
COc1ccc(-c2cn3c(n2)CO[C@@H](CNC2CCCC2)C3)cc1	-2%[70.6 µM]
CCc1noc(-c2cn(C3CCN(C(=O)c4cc(Cl)ccc4OC)CC3)nn2)n1	-15%
O=C(O)C[C@@H]1CCN(C(=O)C2CCCC2)C[C@@H]1CC1=NCCc2cc(F)ccc21	-7%[70.6 µM]
O=C([C@H]1O[C@H](CCN2C[C@@H]3C[C@H](C2)c2cccc(=O)n2C3)CC[C@@H]1O)N1CCN(c2ccccc2)CC1	2%
CC(C)(CC(=O)O)CC(=O)N[C@H]1CO[C@H]2[C@@H]1OC[C@@H]2Nc1nccc(-c2ccc3c(c2)OCO3)n1	3%
CN(Cc1cc(F)c(F)c(F)c1)C1CCc2nn(CC3CC3)c(=O)n2CC1 (centres undefined)	3%
COc1ccccc1C(=O)NCCC1CCN(C(=O)Nc2ccccc2F)CC1	-4%
CCOc1ccc(C(O)Cn2ccn3nc(-c4ccccc4C)cc3c2=O)cc1 (centres undefined)	13µM*
Cc1nc2ccccc2n1CC(=O)N[C@@H]1COCC[C@@H]1OCC1CC1	3%
COC[C@@H]1[C@H](C(=O)N2CCN(c3ccc(F)cc3)CC2)CCC(=O)N1C	-2%
COc1ccc(-c2ccc3nc(-c4cccc(C)c4C)oc3c2)c(OC)c1OC	-11%
OC1(CN2CCCCC2)CCN(Cc2cnn(-c3cccc(F)c3)c2)C1 (centres undefined)	-3%
NC(=O)c1ccc(O[C@@H]2COCC[C@H]2NC(=O)N2CCOCC2)cc1	3%
Cc1ccc(-n2nc3n(c2=O)CCN(C(=O)Nc2ccc(Cl)cc2)C3)cc1	-8%
O=C(Cn1cccc1-c1nc(-c2ccccc2)no1)Nc1ccc(F)cc1	0%
Cc1cnc(C(=O)N2CCC(n3nccc3NC(=O)CCOc3ccccc3)CC2)cn1	5%
Cc1ccc2[nH]c(=O)cc(C(=O)N3CCOC(CCCC(C)C)C3)c2c1 (centres undefined)	-1%
CNC(=O)[C@@H]1CN(S(=O)(=O)c2ccc(Cl)s2)C[C@H]1c1n[nH]c(C)n1	-14%
COc1ccc2nc3n(c2c1)[C@@H](CNC(=O)NC(C)C)COC3	-1%[70.6 µM]
CNc1cc(C(=O)N[C@H](c2cccs2)C2CC(O)C2)ccn1 (some centres undefined)	18%
COc1cccc(S(=O)(=O)N2CCCCCCN(C)C(=O)CC2)c1	1%
COC[C@H]1CCCN1C(=O)CC[C@H]1CNC(=O)[C@@H]2[C@@H](CCN2C2CCOCC2)N1C	-2%[70.6 µM]
O=C(c1ccccc1)N1CCC(c2nn(-c3ccc(Cl)cc3)c(=O)[nH]2)CC1	1%
CCC(=O)N(C1CCOCC1)C1CCN(Cc2ccc(OC)c(OC)c2)CC1	-2%
O=C(NC[C@H]1OC[C@@H](NC2CCC(F)(F)CC2)[C@@H]1O)N1CCOCC1	0%[70.6 µM]
COc1ccc(S(=O)(=O)N2C[C@@H]3C[C@H](C2)c2ccc(NS(=O)(=O)c4cccs4)c(=O)n2C3)cc1	-1%
CCOc1ccccc1C(=O)N1CCC(c2n[nH]c(=O)n2Cc2ccc(OC)cc2)CC1	3%
CCn1cc(C(=O)N2CC(=O)N(CCc3ccccc3)CC(OCc3cccc(OC)c3)C2)cn1 (centres undefined)	1%
Cc1ccccc1N(C)C1CN([S+](=O)([O-])c2cccs2)C1	-7%[70.6 µM]
CCn1cc(-c2ccccc2)cc1C(=O)NCc1ccccn1	-8%
O=C1NCCCCCCN(Cc2ccncc2)[C@@H]2CN(Cc3ccncc3)CC[C@H]12	3%
Cc1ccc2nc3n(c2c1)[C@@H](CNC1CCCCC1)COC3	-1%[70.6 µM]
Cc1cc(=O)n(CC(=O)Nc2ccc(Br)cc2F)c(N(C)Cc2ccccc2)n1	u
Cc1[nH]cnc1CN1CCN(C2CCCC2)CC(C(=O)O)C1 (centres undefined)	4%
COCCOCC(=O)N1[C@@H]2CC[C@H]1CC(NC(=O)c1ccc(F)cc1)C2 (some centres undefined)	2%
Cc1ccccc1CCC1CCCN(S(C)(=O)=O)C1 (centres undefined)	4%
CC(C)NC(=O)N1CCC2(CC1)CC(N(C(=O)c1ccccc1)C1CC1)CCO2 (centres undefined)	-10%
CCc1nc(-c2c3n(c(=O)n(CC(=O)Nc4ccccc4)c2=O)CCCCC3)no1	6%
O=C(NCC1CCCN(C(=O)c2cn[nH]c2-n2cnnn2)C1)c1cccs1 (centres undefined)	4%
Cc1ccc2c(c1)nc1n2[C@@H](CNC(=O)c2ccncc2)COC1	4%[70.6 µM]
Cc1ncccc1OCC1CN(Cc2cccc(C(F)(F)F)c2)C(=O)c2c(ccnc2-c2ccc(OCC(=O)O)cc2)O1 (centres undefined)	12%
Cc1c(NC(=O)CCc2cc3n(n2)CCNC3)cccc1-c1nncn1C	4%
O=C(NCc1ccccc1)N1CCCCCC1c1nc(-c2ccncc2)no1 (centres undefined)	-11%
CN1CCCC2(CCN(C(=O)CN3CCOc4ccccc4C3)C2)C1=O (centres undefined)	23%
CCNC(=O)N(C1CC1)C1CCOC2(CCN(C(=O)COc3ccccc3)CC2)C1 (centres undefined)	-9%
CN1[C@H](C(=O)O)C[C@H](C(=O)NCC(C)(C)CO)[C@@H]1c1cccc(F)c1F	2%
O=C(N[C@@H]1CN(C(=O)Nc2ccccc2)CCC[C@H]1O)c1ccc(OCCN2CCOCC2)cc1	0%
Cc1ccc(CN2CCCCCCNC(=O)[C@@H]3CCC[C@@H]32)s1	0%
Cc1nn(CCO)c(C)c1NC(=O)CCc1cc2n(n1)CCCNC2	2%
COc1ccccc1NC(=O)CN1C(=O)NC2(CCC(C)CC2)C1=O (centres undefined)	0%
O=C(Cc1ccc(F)cc1)N1CCCN(c2nc3ncccc3o2)CC1	-3%
CC1(C(=O)NCc2cnccn2)CCCc2cnc(Nc3ccccc3F)nc21 (centres undefined)	6%[70.6 µM]
O=C(NCc1nnc2ccc(-c3ccccc3)nn12)C1CCCCC1	3%
COCC(=O)N1CCC2(CC1)SCC(=O)N2c1ccc(Cl)cc1	1%
CNC(=O)[C@@H]1C[C@H](Oc2cccnc2)CN1C(=O)c1n[nH]c2ccccc12	-4%
Cc1cccc(C)c1OC1CN(c2cc(C3CC(O)C3)nc(N)n2)C1 (centres undefined)	-7%
CCCS(=O)(=O)NCC1Cn2cccc2C(=O)N1Cc1ccccc1 (centres undefined)	-17%
Cc1noc(C)c1CCC(=O)N1CCC(C2CCN(S(C)(=O)=O)CC2)C1 (centres undefined)	6%
O=C(CN1C(=O)CCC1=O)N1CCC(CCOc2ccccc2F)C1 (centres undefined)	u
Cc1cccc(NC(=O)Cn2nc3n(c2=O)CCCC3)c1	-1%

(further entries)
SMILES	NPR1 antag
Cn1cc(-c2nc(N3CCOCC3)cc3c2CN(CC2CC2)C3=O)cn1	6%[70.6 µM]
CN1Cc2ccc(NCc3ccccc3)nc2C(C)(C(=O)NC2CCC2)C1 (centres undefined)	2%[70.6 µM]
O=C(C1CC(=O)N(c2n[nH]c3ccccc23)C1)N1CCN(CCc2ccccn2)CC1 (centres undefined)	5%
CSCC(=O)N1CC[C@H](NC(=O)NC2CCCCC2)[C@H]1C(=O)N[C@H](Cc1ccccc1)C(N)=O	2%
CN(Cc1cccnc1)C(=O)CCC[C@H]1NC[C@@H]2C[C@H]1CN(Cc1ccccc1)C2	2%
CCN(CC)C(=O)[C@@H](C)C1CC[C@@]2(C)Cc3sc(Nc4c(Cl)cccc4Cl)nc3[C@@H](C)[C@@H]2[C@H]1O (some centres undefined)	-2%
Cc1ccsc1C(=O)N1CCC(C2CCN(S(C)(=O)=O)CC2)C1 (centres undefined)	0%
O=C(Nc1ccc(-c2nnc3n2CCCC3)cc1)c1ccc(Cl)cc1	-4%
CN(C)[C@@H]1CN(Cc2cccn2C)CC[C@@H]1CNC(=O)C1CC1	2%
O[C@@H]1C[C@@H](c2nc(-c3cccnc3)no2)N(Cc2cccs2)C1	1%[70.6 µM]
CCN(CC)C(=O)c1cccc2c1CCN2C(=O)Nc1cccc(C)c1	-15%
CCc1cccc(NC(=O)N2CCC(OC3CCN(S(C)(=O)=O)CC3)CC2)c1	-15%
N#Cc1cccc(C(=O)Nc2ccc([C@H]3OCC(=O)N(Cc4ccc(F)cc4)[C@@H]3CO)cc2)c1	-2%
Cc1cccc(CC(=O)N2CCCC(n3cc(-c4nc(-c5ccccc5)no4)nn3)C2)c1 (centres undefined)	-22%
CCC1C(=O)NCCN1Cc1cn(-c2cccc(F)c2)nc1-c1ccc(C)o1 (centres undefined)	-7%
CC1Oc2ccc(NC(=O)c3ccccc3Cl)cc2CN(Cc2ccc3c(c2)OCO3)C1=O (centres undefined)	-24%
CNC(=O)[C@@H]1CN(C(=O)c2cc(-c3cc(C)ccc3C)n[nH]2)C[C@H]1CO	-7%
O=C(NC1CCCN(c2cc(-c3ccccc3)[nH]n2)C1)c1ccc(Br)cc1 (centres undefined)	-5%
CN(C)c1nc(N2CCC(O)(c3cccnc3)CC2)ncc1F	3%
COCc1noc([C@@H]2CN(C(=O)CC(C)(C)C)C[C@H]2CO)n1	-1%
Cc1ccc(F)cc1S(=O)(=O)N1C[C@@H](C)[C@@](C)(O)C1	4%
COc1cc(=O)n2c(c1C(=O)NCc1ccccc1Cl)CCCC2	-6%
COc1ccc(OC)c(-c2nc3cc4c(cc3cc2CN2CCOCC2)OCO4)c1	-1%
CC(C)CNC(=O)CCc1nc(C2CCCN2C(=O)NC(C)C)no1 (centres undefined)	-6%
Cc1noc(-c2cn(C3CCN(C(=O)c4cc(F)ccc4Cl)C3)nn2)n1 (centres undefined)	-12%
CN(C)c1cccc(NC(=O)c2ccnc(-c3nnc4ccc(N5CCOCC5)nn34)c2)c1	5%
O=C1NC2(CCN(CC3CC3)CC2)COc2ccccc21	5%[70.6 µM]
O=C(CN1C(=O)C(c2ccccc2)=NC12CCCCCC2)NCC1CCCO1 (centres undefined)	9%
OC[C@H]1CCN(Cc2ccc(-c3ccn[nH]3)o2)C[C@H]1O	2%
CN1CCN([C@H]2CCN(C(=O)CCCc3cn[nH]c3)C[C@H]2CCC(=O)O)CC1	5%
O=C1CC(c2ccccc2)N(C(=O)CNC(=O)CN2C(=O)CCC2=O)CCCCCN1 (centres undefined)	3%
CNC(=O)C(C)(C)N1CCC[C@H]1C(=O)N1CCOCC1	-1%[70.6 µM]
COCCN1C(=O)[C@@H]2C[C@@H](CN2Cc2ccc3c(c2)OCO3)Oc2ccccc21	-5%[70.6 µM]
O=C(Nc1cccc(Cl)c1)c1cnc2c(c1)N(Cc1ccccc1)CCC2	-1%[70.6 µM]
CCc1cn(C[C@H](NC2CCCCC2)C(=O)O)c(=O)[nH]c1=O	-1%[70.6 µM]
COCCOc1ccnc(-c2noc([C@@H]3CCCN3Cc3ccc(S(C)(=O)=O)cc3)n2)c1	-1%
O=C(CCCc1ccccc1)N1CCN(C2CCN(Cc3cccnc3)C2=O)CC1 (centres undefined)	-2%
CC(C)CNC(=O)N1CCOc2ccc(CN3CCOCC3)cc2C1	0%
N#Cc1ccc(CN2C[C@@H]3OCC(=O)N(CC(N)=O)[C@@H]3C2)cc1	2%[70.6 µM]
CN1C(=O)Cc2ccccc2C1C(=O)NCc1ccc(F)cc1 (centres undefined)	-3%

Arranged by length of the SMILES (lowest first): 13 of the compounds above
SMILES	NPR1 antag
O=C1NC2(CCN(CC3CC3)CC2)COc2ccccc21	5%[70.6 µM]
CN1C(=O)Cc2ccccc2C1C(=O)NCc1ccc(F)cc1 (centres undefined)	-3%
CNC(=O)C(C)(C)N1CCC[C@H]1C(=O)N1CCOCC1	-1%[70.6 µM]
COc1cc(=O)n2c(c1C(=O)NCc1ccccc1Cl)CCCC2	-6%
CC(C)CNC(=O)CCc1nc(C2CCCN2C(=O)NC(C)C)no1 (centres undefined)	-6%
OC[C@H]1CCN(Cc2ccc(-c3ccn[nH]3)o2)C[C@H]1O	2%
CCc1cn(C[C@H](NC2CCCCC2)C(=O)O)c(=O)[nH]c1=O	-1%[70.6 µM]
O=C(Nc1cccc(Cl)c1)c1cnc2c(c1)N(Cc1ccccc1)CCC2	-1%[70.6 µM]
Cc1ccc(F)cc1S(=O)(=O)N1C[C@@H](C)[C@@](C)(O)C1	4%
N#Cc1ccc(CN2C[C@@H]3OCC(=O)N(CC(N)=O)[C@@H]3C2)cc1	2%[70.6 µM]
CN(C)c1cccc(NC(=O)c2ccnc(-c3nnc4ccc(N5CCOCC5)nn34)c2)c1	5%
COCCN1C(=O)[C@@H]2C[C@@H](CN2Cc2ccc3c(c2)OCO3)Oc2ccccc21	-5%[70.6 µM]
COCCOc1ccnc(-c2noc([C@@H]3CCCN3Cc3ccc(S(C)(=O)=O)cc3)n2)c1	-1%

Later entries
SMILES	NPR1 antag
Cc1ccsc1C(=O)C1CCCN(Cc2cc(F)ccc2-n2cccn2)C1 (centres undefined)	-2%
CN(C(=O)C1CC=CCC1)C1CCc2nn(C)c(=O)n2CC1 (centres undefined)	0%
CC(C)NC(=O)C[C@@H]1CCNC[C@@H]1Cc1cc(-c2ccc(C(C)(C)C)cc2)on1	4%[70.6 µM]
O=C1CCN(S(=O)(=O)c2ccccc2)CCCN(C(=O)CN2C(=O)CCC2=O)CCN1	-16%
COc1ccc(NC(=O)N2CCC3(CC2)CC(OCC2CC2)CCO3)cc1 (centres undefined)	0%
COc1cccc(NC(=O)C2(C)CCCCC(=O)N2)c1 (centres undefined)	u
COc1ccccc1CNC(=O)C1CCN(c2cc(C(F)(F)F)nc(C)n2)CC1	-13%
